Vaccinia mCherry = inhibitors of vaccinia virus infection (mCherry reporter signal). Vaccinia virus mCherry reporter infection, fluorescence; about a quarter of the inactives have no number. Potency, µM (series often up to 36.5 µM), for the others: at the top dose activity change, negative = inhibition, hits mostly inhibitors. hit rate 0.63% among 310,000; active = well fitted inhibition curve with a large enough effect; inconclusive = small, poorly fitted or top-dose-only effect; inactive = no such curve, though single readings can be large or run the other way; tested in A549 cells; also: nearly all actives have a fitted effect of over 35% in size; inactives centre near -10
Vaccinia Venus = vaccinia inhibition (Venus reporter) | Vaccinia virus Venus reporter expression, fluorescence | Potency, µM (titrated, usually from 36.5 µM), without a hit: top-dose activity change, negative = inhibition, most hits filed as inhibitors | hit rate 0.46% among 330,000 | AID 720580; active means well fitted inhibition curve with a large enough effect; inconclusive means small, poorly fitted or top-dose-only effect; inactive means no such curve, though single readings can be large or run the other way; tested in A549 cells; also: nearly all actives have a fitted effect of over 30% in size; inactives centre near -10
Active calls of the source: *; i = inactive; u = inconclusive; x = no result given; & = joins results of further samples; [ ] = another dose, or the depositor's remark. % is scaled to controls: 0 for no effect and ±100 for the full control effect; potency is read from the fitted curve at half-maximal effect. Rows are unselected; overall some 0.87% were active at least once.

> COC(=O)c1c(C)[nH]c(C(=O)/C=C/c2ccc(Cl)cc2)c1C
  Vaccinia mCherry: -22%	Vaccinia Venus: -12%
> Cn1c(-c2ccc(S(=O)(=O)N3CCCC3)cc2)csc1=Nc1ccc(Cl)c(Cl)c1
  Vaccinia mCherry: -18%[7.34 µM]	Vaccinia Venus: -26%[7.34 µM]
> COc1cc(CCC(=O)NNC(=O)c2ccc(C)cc2)cc(OC)c1OC
  Vaccinia mCherry: -16%	Vaccinia Venus: -9%
> CCCC(=O)Nc1ccc(Cl)c(NC(=S)NC(=O)c2cc3ccccc3o2)c1
  Vaccinia mCherry: -9%	Vaccinia Venus: -10%
> CCCCCNC(=O)C1CCC(Cn2c(=S)[nH]c3ccccc3c2=O)CC1 (centres undefined)
  Vaccinia mCherry: -11%	Vaccinia Venus: -3%
> CC(C)NC(=O)C1CCN(Cc2cccc(OCc3ccccc3)c2)CC1
  Vaccinia mCherry: u	Vaccinia Venus: -14%
> O=C(Nc1cccc(S(=O)(=O)NCc2ccco2)c1)c1cc(-c2ccccc2)nc2ccccc12
  Vaccinia mCherry: u	Vaccinia Venus: u
> Cc1nn2c(CN(C(=O)c3ccco3)c3ccccc3)nnc2c2ccccc12
  Vaccinia mCherry: -8%	Vaccinia Venus: -13%
> Cc1cc(C)c2c(=O)[nH]c(SCC(=O)Nc3ccc(N(C)C)cc3)nc2n1
  Vaccinia mCherry: -9%	Vaccinia Venus: -2%
> Cc1ccc(Cn2c(C(C)NC(=O)c3ccccc3)nc3ccccc32)cc1 (centres undefined)
  Vaccinia mCherry: -2%	Vaccinia Venus: -10%

> CCc1ccc(C2=C/C(=C/c3cccnc3)C(=O)O2)cc1
  Vaccinia mCherry: -10%	Vaccinia Venus: 2%
> Cc1ccc(-n2c(SCc3ccc(C(=O)O)cc3)nnc2-c2ccncc2)cc1
  Vaccinia mCherry: -8%	Vaccinia Venus: -10%
> CCOC(=O)C1CCN(C(=S)Nc2ccc(Cl)cc2C)CC1
  Vaccinia mCherry: i	Vaccinia Venus: -11%
> CCCOc1ccc2[nH]cc(C(=O)O)c(=O)c2c1
  Vaccinia mCherry: -12%	Vaccinia Venus: -10%
> N#CNc1nc(O)cc(=O)[nH]1
  Vaccinia mCherry: -1%	Vaccinia Venus: -3%
> O=C(NCc1ccccn1)[C@@H]1CCCN1C(=O)[C@@H]1CCCN1C(=O)c1cccc2ccccc12
  Vaccinia mCherry: 19%	Vaccinia Venus: -9%
> N=C(N)n1ncc2c1CCCC2=O
  Vaccinia mCherry: -10%	Vaccinia Venus: -4%
> CC1=NN(c2ccc(S(=O)(=O)O)cc2Cl)C(=O)C1
  Vaccinia mCherry: i	Vaccinia Venus: -5%
> C[C@@H](CN=[N+]=[N-])CN1CC[C@H](NC(=O)OCc2ccccc2)CCC1=O
  Vaccinia mCherry: i	Vaccinia Venus: -3%&-17%
> COc1ccc(CNC(=O)c2cccc(NC(=O)CC3SC(N4CCCCC4)=NC3=O)c2)cc1 (centres undefined)
  Vaccinia mCherry: i	Vaccinia Venus: -12%

> CC(=O)c1ccc(N(CC(=O)NC2CCCC2)C(=O)CCC(=O)Nc2cc(C)on2)cc1
  Vaccinia mCherry: -12%	Vaccinia Venus: -3%
> CCOC(=O)c1ccccc1N/C=C/C(=O)c1cccs1
  Vaccinia mCherry: -26%	Vaccinia Venus: -20%
> CCOC(=O)c1ccc2oc(=O)n(Cc3ccccc3)c2c1
  Vaccinia mCherry: -12%	Vaccinia Venus: 2%
> Cc1ccc2c(=O)cc(C(=O)Nc3ccc(S(=O)(=O)N(C)Cc4ccccc4)cc3)oc2c1C
  Vaccinia mCherry: 5%	Vaccinia Venus: -17%
> Cc1ccsc1/C=N/NC(=O)CC(=O)NCC(C)C
  Vaccinia mCherry: i	Vaccinia Venus: -3%
> O=C(Cn1ncc(Cl)c(Cl)c1=O)N1CCc2ccccc21
  Vaccinia mCherry: u	Vaccinia Venus: u
> Cc1cccc(C)c1-n1nnnc1C(c1ccnc2ccccc12)N1CCN(C(=O)OC(C)(C)C)CC1 (centres undefined)
  Vaccinia mCherry: -11%	Vaccinia Venus: -20%
> CCc1nc2ccc(C(=O)Nc3ccc(OC)c(OC)c3)cn2c1N(C)C(=O)c1cccc(OC)c1
  Vaccinia mCherry: 15%	Vaccinia Venus: -2%
> Cc1ccnc(NC(=O)c2ccc(S(=O)(=O)NCc3ccco3)cc2)c1
  Vaccinia mCherry: -6%	Vaccinia Venus: -25%
> O=C(COC(=O)c1ccc2ccccc2n1)c1ccc(F)cc1
  Vaccinia mCherry: -10%	Vaccinia Venus: 4%

Reprinted from the listing (four entries):
> Cc1cccc(C)c1-n1nnnc1C(c1ccnc2ccccc12)N1CCN(C(=O)OC(C)(C)C)CC1 (centres undefined)
  Vaccinia mCherry: -11%	Vaccinia Venus: -20%
> CCc1nc2ccc(C(=O)Nc3ccc(OC)c(OC)c3)cn2c1N(C)C(=O)c1cccc(OC)c1
  Vaccinia mCherry: 15%	Vaccinia Venus: -2%
> Cc1ccnc(NC(=O)c2ccc(S(=O)(=O)NCc3ccco3)cc2)c1
  Vaccinia mCherry: -6%	Vaccinia Venus: -25%
> O=C(COC(=O)c1ccc2ccccc2n1)c1ccc(F)cc1
  Vaccinia mCherry: -10%	Vaccinia Venus: 4%

Remaining list, next part:
> O=C(CSc1nnc2ccc3ccccc3n12)c1ccc(F)cc1
  Vaccinia mCherry: -25%	Vaccinia Venus: -21%
> Cc1cccc(N2CCN(Cc3nc(CC4CC4)no3)CC2)n1
  Vaccinia mCherry: -7%	Vaccinia Venus: -9%
> CN(C)c1ccc(C(=O)Nc2nnc(C3=COCCO3)o2)cc1
  Vaccinia mCherry: i	Vaccinia Venus: -3%
> C=CCn1c(O)c(C(C)=NC2CC2)c(=O)[nH]c1=O
  Vaccinia mCherry: x	Vaccinia Venus: -15%
> N#C/C(=C\c1ccc(-c2ccc(S(=O)(=O)N3CCOCC3)cc2)o1)C(=O)NC1CC1
  Vaccinia mCherry: -20%	Vaccinia Venus: -8%
> COc1ccc(CN2C[C@@H](CO)O[C@@H](n3cnc4c(N5CCN(C)CC5)ncnc43)C2)cc1
  Vaccinia mCherry: 4%	Vaccinia Venus: 0%
> CC(=O)NCCN1C(=O)S/C(=C\c2cccs2)C1=O
  Vaccinia mCherry: -12%	Vaccinia Venus: 2%
> CCN(CC)C(=O)CN(c1cc(Cl)ccc1OC)S(C)(=O)=O
  Vaccinia mCherry: -2%	Vaccinia Venus: -7%
> Cc1nn(Cc2ccccc2)c(C)c1C(=O)OCC(=O)NCc1ccco1
  Vaccinia mCherry: x	Vaccinia Venus: -4%
> COC(=O)c1cc2ccsc2n1Cc1nc(-c2ccc(OC)cc2)oc1C
  Vaccinia mCherry: -3%	Vaccinia Venus: -6%

New compounds follow:
Order of values – Vaccinia mCherry | Vaccinia Venus
O=C(Cn1cnc2c(oc3ccccc32)c1=O)Nc1ccc(OC(F)(F)F)cc1
 : -3% | -9%
COc1ccccc1NC(=O)NCc1nc(-c2ccc(C(F)(F)F)cc2)no1
 : -22% | -13%
C=CCn1c(=O)c2ccc(C(=O)NCc3ccccc3)cc2n(Cc2ccc(Cl)cc2)c1=O
 : i | -9%
CNc1ccc(Br)cc(C(=O)/C=C/c2ccc(OC)cc2)c1=O
 : i | -6%
Cc1ccc(C(=O)c2cn(CC(=O)NCc3ccccc3Cl)c3nc(C)ccc3c2=O)cc1
 : 0% | 0%
Cn1ccnc1SCC(=O)Nc1ccc(Br)cc1C(F)(F)F
 : -14% | -13%
COc1ccc2nc(/N=C/c3cccc(OC)c3O)sc2c1
 : -4% | 1%
CCOC(=O)n1c(SCC(N)=O)nc2ccccc21
 : -13% | -2%
Cc1cc(Cl)ccc1NC(=O)C1CCCN1C(=O)c1cccs1 (centres undefined)
 : i | 0%
CC(C)c1ccc(/C=C2\SC(=S)N(CCC(=O)NCCCn3ccnc3)C2=O)cc1
 : -25% | -23%
CCc1ccc(NS(=O)(=O)c2ccc3[nH]cc(C(=O)NC4CCCC4)c(=O)c3c2)cc1
 : -10% | -25%
O=C1CCC/C(=N\NC(=O)c2ccc(NS(=O)(=O)c3ccc(Br)cc3)cc2)C1
 : i | -6%
Cc1nc2cc(NCc3ccc(Cl)cc3)ccc2n1C
 : u | -10%
O=c1c2cc(NC(=S)N3CCCCCC3)ccc2nc2n1CCCCC2
 : 10% | 1%
COc1ccccc1-n1c(SCC(=O)Nc2ccc(Cl)cc2)nc(O)c(Cc2ccccc2)c1=O
 : i | -22%
CC1(c2ccc3c(c2)OCCO3)NC(=O)N(CC(=O)Nc2ccccc2F)C1=O (centres undefined)
 : -10% | -13%
Cc1ccc(C(=O)NC(=S)NCCCN2CCOCC2)cc1
 : -9% | 14%
COc1ccccc1NC(=S)N1CCN(c2ccccn2)CC1
 : -1% | -14%
CCN1CCN(C(=O)c2nn(-c3ccc(C)cc3)c(=O)c3c2c2ccccc2n3C)CC1
 : -13% | -4%
CC(=O)Nc1cncc(-c2cccc(C(=O)N(C)C)c2)n1
 : i | 5%
Cc1cccc(-n2c(=S)[nH]c3ccccc3c2=O)n1
 : 0% | 6%
O=c1c2ccc(Cl)cc2[nH]c(=S)n1CCC1=CCCCC1
 : -13% | -9%
COc1ccc(C(C)=O)cc1CC1(C)C(=O)Nc2ccc(OC(F)(F)F)cc21 (centres undefined)
 : -15% | -17%
COc1cccc(CNC(=O)c2cc(C)nc3ccccc23)c1
 : i | -8%
Cc1c(C(=O)N2CC(C)OC(C)C2)[nH]c2ccc(Br)cc12 (centres undefined)
 : -17% | -11%
CSc1ccc(/C=C(\C#N)C(=O)NC2CCCCC2)cc1
 : -13% | -7%
CN=C(C)/C(C(=O)OC)=C(/O)c1ccccc1F
 : -2% | -21%
O=C(CNc1cc(S(=O)(=O)N2CCOCC2)ccc1N1CCOCC1)Nc1cccc(C(F)(F)F)c1
 : i | 2%
CC(C)C(NC(=O)c1ccc(C(C)(C)C)cc1)C(=O)N1CCC(C(N)=O)CC1 (centres undefined)
 : -14% | -8%
CN1CCC(=NNC(=O)c2cn(-c3ccccc3)nc2-c2ccccc2)CC1
 : u | -18%
CC1C(=O)Nc2ccc(S(=O)(=O)NCCc3ccc(Cl)cc3)cc2NC1=O (centres undefined)
 : i | -2%
Nc1nccnc1C(=O)OCC(=O)Nc1ccc2[nH]c(=O)[nH]c2c1
 : i | -6%
CCNC(=O)C1(C)CCN(C(=O)c2ccccc2)C1 (centres undefined)
 : 32%[activator] | 7%
O=C(N[C@@H](Cc1c[nH]c2ccccc12)C(=O)O)OCC1c2ccccc2-c2ccccc21
 : -9% | 0%
Cn1cc(CN2CCCC(C(=O)Nc3cccc(-n4cccn4)c3)C2)cn1 (centres undefined)
 : -21% | -4%
N#Cc1cc(C(=O)c2cc(Cl)ccc2O)cn(CC2CCCO2)c1=O (centres undefined)
 : -19% | -14%
CCN(CC)C(=O)C(Oc1ccc(S(=O)(=O)N2CCCC2)cc1[N+](=O)[O-])c1ccccc1 (centres undefined)
 : i | -11%
O=C(/C=C/c1cccc(F)c1)NCc1ccc2c(c1)OCO2
 : -17% | -4%
COc1ccc(NC(=O)[C@@H]2CCCN2S(=O)(=O)c2ccccc2F)cc1S(=O)(=O)N1CCCCC1
 : u | -7%
COc1ccc(NC(=O)c2[nH]c(C)c(C(C)=O)c2C)cc1S(=O)(=O)Nc1ccc(Br)cc1
 : 1% | 8%
COc1ccc(-c2cn[nH]c2-c2ccc(OCc3ccccc3F)cc2O)cc1OC
 : u | u
CCOC(=O)c1[nH]c2c(c1Cc1ccccc1)C(=O)CC(c1ccc(OC)cc1)C2 (centres undefined)
 : -12% | -10%
COc1cc(C)c(CN2CCc3nnc(C(C)NC(=O)c4cccnc4)n3CC2)cc1C (centres undefined)
 : i | -20%
CN1CC(C(=O)c2cccs2)C(c2ccc(Cl)cc2)C1 (centres undefined)
 : u | -4%
Cc1cc(C)n(/N=C/c2ccccc2)c(=O)c1C#N
 : 0% | 1%
COc1ccc(-c2nc(S(=O)(=O)c3ccc(C)cc3)c(N3CCCCC3)o2)cc1
 : -14%[7.34 µM] | -12%[7.34 µM]
Cc1ncsc1C(=O)Nc1nc2c(s1)CCCC2
 : -17% | -23%
O=C(O)c1nc(-c2ccccc2)c(C(=O)NC2CC2)[nH]1
 : 16% | -4%
Cc1cc([N+](=O)[O-])cc(C)c1OCC(=O)N/N=C/c1ccc(OC(=O)c2ccccc2)cc1
 : i | -10%
CCC(C)NC(=O)c1cn(CC)c2cc(N3CCN(C(=O)c4ccco4)CC3)c(F)cc2c1=O (centres undefined)
 : 5µM* | u
O=C(CC[C@H]1O[C@@H](n2ccc(=O)[nH]c2=O)[C@H](O)[C@@H]1O)NCc1ccco1
 : 6% | 10%

Some of the entries above in a different format:
| Compound | Vaccinia mCherry | Vaccinia Venus |
| --- | --- | --- |
| CC(=O)NCCN1C(=O)S/C(=C\c2cccs2)C1=O | -12% | 2% |
| CC1=NN(c2ccc(S(=O)(=O)O)cc2Cl)C(=O)C1 | i | -5% |
| COc1ccccc1NC(=S)N1CCN(c2ccccn2)CC1 | -1% | -14% |
| Cc1nc2cc(NCc3ccc(Cl)cc3)ccc2n1C | u | -10% |

An excerpt from above in order of molar mass, rising.
Order of values – Vaccinia mCherry | Vaccinia Venus
O=c1c2cc(NC(=S)N3CCCCCC3)ccc2nc2n1CCCCC2
 : 10% | 1%
Cn1c(-c2ccc(S(=O)(=O)N3CCCC3)cc2)csc1=Nc1ccc(Cl)c(Cl)c1
 : -18%[7.34 µM] | -26%[7.34 µM]
O=C(Nc1cccc(S(=O)(=O)NCc2ccco2)c1)c1cc(-c2ccccc2)nc2ccccc12
 : u | u
